# Source: PubChem BioAssay
# StopGo reporter: lowers the luciferase signal of an FMDV 2A StopGo reporter | human cells with a luciferase reporter of 2A StopGo recoding; control for the full effect not named in the record | Potency, µM (doses to about 57.9 µM), for the others: at the highest dose signal change, negative = less light | 410,000 compounds, 1.2% hits | AID 1159524; active = well fitted falling curve with a large enough effect; inconclusive = small, poorly fitted or top-dose-only effect; inactive = no such curve, though single readings can be large or run the other way; tested in HEK293T cells; further: on the % scale 0 is the no-effect control and ±100 the full control effect; nearly all actives have a fitted effect of over 45% in size; luciferase light after 4 h
# Cruzain noTriton: cruzain (T. cruzi) inhibition without detergent; purified cruzain, Z-FR-AMC fluorescence, no detergent; Potency, µM, inactives show max response, negative = inhibition, hits mostly inhibitors; 200,000 compounds, 2.3% hits; active means well fitted curve in the direction sought with a large enough effect; inconclusive means small, poorly fitted or top-dose-only effect, or another doubt; inactive means no such curve, though single readings can be large; an effect the other way counts as inactive or inconclusive;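 further: plate controls were enzyme without inhibitor for no effect and buffer without enzyme for full effect; nearly all actives have a fitted effect of over 40% in size; top concentration of the series not given in the record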
# Target sequence (P25779 123-467 limits assumed): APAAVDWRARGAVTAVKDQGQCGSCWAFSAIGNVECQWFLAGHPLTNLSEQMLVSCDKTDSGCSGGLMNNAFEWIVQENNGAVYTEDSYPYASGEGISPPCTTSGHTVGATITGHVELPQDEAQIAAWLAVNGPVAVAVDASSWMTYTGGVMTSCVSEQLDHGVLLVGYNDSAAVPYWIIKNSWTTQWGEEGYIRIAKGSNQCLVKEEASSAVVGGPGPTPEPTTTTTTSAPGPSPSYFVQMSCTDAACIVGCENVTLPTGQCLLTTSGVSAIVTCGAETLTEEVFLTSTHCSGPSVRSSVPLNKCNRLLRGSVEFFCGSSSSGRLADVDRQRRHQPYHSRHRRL
#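 Purified cruzain at 1.5 nM, pre-incubated 15 min with compound at room temperature in 100 mM sodium acetate pH 5.5, 5 mM DTT, 0.00005% Triton X-100. Reaction started with 2 uM Z-FR-AMC; AMC fluorescence increase over 60 s gives rate.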
# SARS PLpro yeast: blocks SARS-CoV papain-like protease in a yeast assay; S. cerevisiae expressing SARS-CoV PLpro, growth rescue; control for the full effect not named in the record; Potency, µM (highest dose often 32.9 µM), without a hit: top-dose activity, positive = growth rescue; 330,000 compounds, 0.19% hits; further: 0% is about no effect; nearly all actives have a fitted effect of over 55% in size; growth read by luminescence after 48 h
# RE007 growth inh: less growth of the S. pombe RE007 Vpr strain | S. pombe RE007 Vpr strain, BacTiter-Glo ATP luminescence, 24 h; control for the full effect not named in the record | Potency, µM (highest dose often 92.2 µM), inactives show at the highest dose activity change, negative = less growth | 360,000 compounds, 0.21% hits; active = well fitted falling curve with a large enough effect; inconclusive = small, poorly fitted or top-dose-only effect; inactive = no such curve, though single readings can be large or run the other way;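 further: on the % scale 0 is the no-effect control and ±100 the full control effect; nearly all actives have a fitted effect of over 50% in size; the assay follows cell death caused by Vpr and the record does not say whether a fall means rescue or toxicity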
#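 Fission yeast RE007 carrying one integrated HIV-1 vpr copy, seeded at OD 0.01 in PMG+AL medium with 23 nL pinned compound. Grown 24 h at 30 degrees; viability read by BacTiter-Glo luminescence after 5 min.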
# LASV entry inh: blocks Lassa virus binding to or entry into cells | Potency, µM (highest dose often 37.9 µM), without a hit: at the top dose activity change, negative = inhibition, hits mostly inhibitors | 300,000 compounds, 1.2% hits | Lassa virus pseudotype entry inhibition, cell reporter; control for the full effect not named in the record; active means well fitted inhibition curve with a large enough effect; inconclusive means small, poorly fitted or top-dose-only effect, or effect the other way; inactive means flat fitted curve, though single readings scatter; tested in HEK293 cells; further: on the % scale 0 is the no-effect control and ±100 the full control effect; nearly all actives have a fitted effect of over 50% in size; luciferase read-out
# MARV entry inh: inhibitors of Marburg virus binding or cell entry; 300,000 compounds, 1.8% hits; Marburg virus pseudotyped entry inhibition, cell reporter; control for the full effect not named in the record; about a third of the inactives were read at about 46 µM; Potency, µM (titrated, usually from 37.8 µM), inactives show at the highest dose activity change, negative = inhibition, hits mostly inhibitors; active = well fitted inhibition curve with a large enough effect; inconclusive = small, poorly fitted or top-dose-only effect, or effect the other way; inactive = flat fitted curve, though single readings scatter; tested in HEK293 cells; about a fifth of its hits are not listed in these tables; further: on the % scale 0 is the no-effect control and ±100 the full control effect; luciferase read-out
# Cruzain Triton: blocks cruzain activity in presence of Triton detergent; P25779; purified cruzain, Z-FR-AMC fluorescence, 0.01% Triton; Potency, µM, inactives show max response, negative = inhibition, hits mostly inhibitors; 200,000 compounds, 0.43% hits; AID 1478; active means well fitted curve in the direction sought with a large enough effect; inconclusive means small, poorly fitted or top-dose-only effect, or another doubt; inactive means no such curve, though single readings can be large; an effect the other way counts as inactive or inconclusive;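 further: plate controls were neutral wells for no effect and buffer without enzyme for full effect; nearly all actives have a fitted effect of over 40% in size; top concentration of the series not given in the record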
#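 Cysteine protease activity tested under reducing, mildly acidic conditions (100 mM sodium acetate pH 5.5, 5 mM DTT) plus 0.01% Triton X-100. Cruzain 1.5 nM; substrate Z-FR-AMC 2 uM; 15 min compound preincubation at room temperature.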
# NS1 inh: inhibitors of influenza NS1 protein function; 270,000 compounds, 0.4% hits; S. cerevisiae slowed by influenza A NS1, growth recovery by OD600; Potency, µM (series often up to 46.1 µM), for inactives: top-dose activity, positive = more growth; further: actives are rising curves; nearly all actives have a fitted effect of over 50% in size
#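 S. cerevisiae expressing influenza A NS1, grown in glucose, washed, then diluted 1:100 into pH 6.0 -URA galactose medium with 23 nl compound. Growth recovery read as OD600; NS1-free strain serves as control.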
# An asterisk follows results filed as active; ? = inconclusive; . = not tested or not shown; & = joins results of further samples; [ ] = another dose, or the depositor's remark. Unless noted, the call rests on the fitted dose curve; in most records, active means well fitted rising curve with a large enough effect; inconclusive means small, poorly fitted or top-dose-only effect; inactive means no such curve, though single readings can be large or run the other way. Potency means the concentration at half of the fitted maximal effect.
# Every second line gives: NS1 inh	StopGo reporter	MARV entry inh	RE007 growth inh	Cruzain noTriton	SARS PLpro yeast	Cruzain Triton	LASV entry inh
COc1ccc(C(CC(=O)N2CCCCC2)c2c(OC)cc(OC)c3c(-c4ccccc4)cc(=O)oc23)cc1 (stereo not given)
  3%	-12%	.	-12%	.	0%	.	.
CC(C)(N=NC(C)(C)C(=N)N)C(=N)N
  4%	2%	.	.	-6%&3%	.	1.4%&3.9%	.
Cc1nnc(NC(=O)c2cccc(Br)c2)s1
  -48%	22%	32%	?	6%	-14%	1.2%	5%
COc1cc2c(cc1OC)C(c1ccccc1Cl)N(C)CC2 (stereo not given)
  4%	-3%	.	-1%	.	-3%	.	.
CC(=O)Nc1ccc(NC(=O)Cn2nc(C(=O)Nc3ccc(C)cc3)ccc2=O)cc1
  -5%	5%&-7%	.	-1%	18%	-3%	4.1%	0%[46.1 µM]
S=C(NCc1ccco1)N1CCN(c2cccc(Cl)c2)CC1
  -4%	0%	.	-9%	.	-1%	.	.
Cc1coc2c(C)c3oc(=O)c(CCC(=O)N4CCCCC4)c(C)c3cc12
  .	-17%	2%[46.1 µM]	.	0%	.	-0.7%	-9%[46.1 µM]
O=C(Nc1ccc(OC(F)(F)F)cc1)NC1COc2ccccc2C1 (stereo not given)
  .	-5%	.	.	5%	.	0.2%	-5%[46.1 µM]
Cc1nc(C)c(C(=O)C2=C(O)C(=O)N(CCCn3ccnc3)C2c2ccc(Cl)cc2)s1 (stereo not given)
  1%	22%	-2%[46.1 µM]	-15%	-3%	2%	0.0%	6%
CCCc1cc(=O)[nH]c(SCC(=O)N(CC)Cc2ccccc2)n1
  -4%	5%	6%	?	2%	-5%	3.2%	21%

# Random excerpt: four compounds from above, in no set order.
# Every second line gives: NS1 inh	StopGo reporter	MARV entry inh	RE007 growth inh	Cruzain noTriton	SARS PLpro yeast	Cruzain Triton	LASV entry inh
Cc1nc(C)c(C(=O)C2=C(O)C(=O)N(CCCn3ccnc3)C2c2ccc(Cl)cc2)s1 (stereo not given)
  1%	22%	-2%[46.1 µM]	-15%	-3%	2%	0.0%	6%
O=C(Nc1ccc(OC(F)(F)F)cc1)NC1COc2ccccc2C1 (stereo not given)
  .	-5%	.	.	5%	.	0.2%	-5%[46.1 µM]
CC(C)(N=NC(C)(C)C(=N)N)C(=N)N
  4%	2%	.	.	-6%&3%	.	1.4%&3.9%	.
COc1cc2c(cc1OC)C(c1ccccc1Cl)N(C)CC2 (stereo not given)
  4%	-3%	.	-1%	.	-3%	.	.

# The listing continues.
# Every second line gives: NS1 inh	StopGo reporter	MARV entry inh	RE007 growth inh	Cruzain noTriton	SARS PLpro yeast	Cruzain Triton	LASV entry inh
CCC(c1nnnn1C(C)(C)C)N1CCN(Cc2ccccc2OC)CC1 (stereo not given)
  2%	-8%	.	-8%	.	0%	.	.
CCc1nnc(NC(=O)CSc2nc3cc4c(cc3cc2C)OCCO4)s1
  6%	13%	?	-6%	?	-1%	2.1%	12%
CCOc1ccccc1Nc1nnc(SCC(=O)N2CCCC2)s1
  -7%	18%	13%	-4%	-3%	1%	-12%	13%
Cc1nn(CCCC(=O)Nc2ccccc2C(F)(F)F)c(=O)c2nn(-c3ccccc3)c(C)c12
  .	-25%	.	.	-1%	.	0.4%	15%[46.1 µM]
O=C(Nc1ccc(Cl)c(S(=O)(=O)N2CCOCC2)c1)c1ccccn1
  1%	-19%	?	4%	.	-1%	.	-17%[46.1 µM]
CN(C)C1NC(=O)c2cc(-c3ccccc3)sc2N1 (stereo not given)
  -16%	23%	?	13%	?	-9%	-8.7%	10%
CSCC[C@H](NC(=O)[C@H]1CC[C@H](CNC(=O)[C@@H](N)Cc2ccccc2)CC1)C(=O)O
  1%	-8%	.	24%	.	0%	.	.
CC(C)Cc1nc2sc3c(=O)n(N)cnc3c2c2c1COC(C)(C)C2
  6%	3%	.	14%	?	3%	0.4%	.
CS(=O)(=O)Nc1ccc(C2=NN(C(=O)C3CCCCC3)C(c3cccs3)C2)cc1 (stereo not given)
  13%	20µM*	?	22%	4%	3%	-0.9%	?
CCOC(=O)N1CCN(C(=O)c2cccc(S(=O)(=O)Nc3ccc(Br)cc3)c2)CC1
  .	24%	-20%	-14%	.	-1%	.	-16%
O=C(CSc1nncs1)Nc1cc(-c2ccccc2)nn1-c1ccccc1
  9%	-12%	?	-21%	-3%	2%	-4.7%	-2%
O=C(NCc1ccccc1F)C1CCCN1S(=O)(=O)c1ccc(F)cc1 (stereo not given)
  10%	-12%	-5%	4%	.	0%	.	19%
O=C(/C(=C\c1ccccc1)c1nc2ccccc2[nH]1)c1ccc(Cl)cc1
  -16%	?	?	-9%	-4%	-65%	-6.6%	?
COC(=O)c1ccc(NC(C)=O)o1
  7%	-20%	0%	0%	1%	0%	5.6%	-3%
COc1ccc(O)c(C(=O)CC(=O)c2ccc(F)cc2)c1
  -243%	0%	13µM*	?	-8%	-24%	-5.9%	10µM*
NC(=O)c1c(-c2ccc(Cl)cc2Cl)csc1NC(=O)Cc1ccccc1
  11%	?	?	-11%	?	14%	-3.2%	-12%
CCc1nnc(NC(=O)CSc2nccn2-c2ccc(OC)cc2)s1
  .	-22%	.	.	1%	.	1.7%	-15%[46.1 µM]
CCOC(=O)c1sc2nc(-c3ccco3)c3c(c2c1N)CC(C)(C)OC3
  3%	?	14%	-29%	?	-4%	-9.2%	-17%
CCCCC(CC)C(=O)N1CCN(C(=O)c2ccco2)CC1 (stereo not given)
  3%	-15%	.	-9%	.	0%	.	.
COc1cc(C2c3c(-c4ccc(C)cc4)n[nH]c3C(=O)N2c2ccc(F)cc2)ccc1O (stereo not given)
  .	?	?	.	1%	.	-10%	?
COc1ccccc1CNn1c(-c2cccc(C)c2)nc2ccccc2c1=O
  -11%	.	?	12%	6%	-8%	-4.2%	?
CCOC(=O)c1c(C)oc2nc(C)nc(NCc3ccc(OC)cc3OC)c12
  .	-27%	.	.	-11%	.	-3.3%	11%[46.1 µM]
Cc1ccc(S(=O)(=O)N(Cc2cccc(C(F)(F)F)c2)C(=O)N2CCN(C)CC2)cc1
  .	-15%	-4%	-3%	.	-9%	.	?
CCOC(=O)C(C)Sc1ncc(OC)c(=O)[nH]1 (stereo not given)
  -5%	4%	20%	3%	-6%	0%	8.2%	12%
O=C(Nc1cccc(F)c1)Nc1ccc2c(c1)CCC2
  -4%	27%	?	-14%	.	-1%	.	?
COc1ccc(CNC(=O)[C@H](C)NC(=O)C2CCN(S(=O)(=O)c3ccc(F)cc3)CC2)cc1
  4%	-1%	.	1%	.	-3%	.	.
Cc1ccc(OCCNC(=O)CN2C(=O)NC3(CCCC3)C2=O)cc1
  .	-22%	12%[46.1 µM]	-2%	.	8%	.	11%
O=C(CSC1=NS(=O)(=O)c2cc(F)ccc2N1)NCCc1ccccc1
  .	13%	-1%	1%	.	-2%	.	2%[46.1 µM]
CC(=O)Nc1ccc(NC(=O)CSc2ccc(-c3cccnc3)nn2)cc1
  7%	-8%	21%	22%	.	0%	.	3%
CC[C@H](C)/C=C(C)/C=C/C(=O)Cc1cc(O)c(C)c(O)c1C=O
  -4%	-14%	.	11%	.	-2%	.	.
CN(Cc1ccc(OC(F)F)cc1)C(=O)c1cccc(S(=O)(=O)N2CCN(Cc3ccccc3)CC2)c1
  .	13µM*	?	-12%	.	.	.	?
CC1CCN(CC(=O)c2ccc3c(c2)OCCO3)CC1
  .	-40%	6%	4%	.	-5%	.	-21%
Cc1nnc(NC(=O)C2CCN(S(=O)(=O)c3ccc(Cl)cc3)CC2)s1
  .	-10%	19%[46.1 µM]	-3%	.	1%	.	.
COc1ccccc1NS(=O)(=O)c1ccc(C(=O)NCCCN2CCOCC2)cc1
  .	-20%	6%[46.1 µM]	2%	.	-1%	.	-3%
CCOC(=O)c1ccc(NC(=O)C(CC)(CC)C(=O)OCC)cc1
  -35%	-24%	-2%	-4%	-6%	-3%	4.1%	-29%
O=C(c1ccc(Cl)s1)N1CCOCC1
  3%	22%	20%	5%	-13%	2%	-6.8%	0%
CC(C)(C)NC(=O)COc1ccc(CNCc2cccs2)cc1
  6%	.	-28%	11%	-2%	-6%	0.7%	?
S=C1CC2CCCC(C2)N1 (stereo not given)
  .	-8%	13%	26%	.	.	.	12%[46.1 µM]
COc1cc(/C=N/NC(=O)c2cccnc2)ccc1OCC(=O)Nc1ccc(C)cc1
  -3%	20%	0%[46.1 µM]	10%	-11%	-12%	?	14%[46.1 µM]
COc1ccc(-c2csc(NC(=O)C3=COCCO3)n2)cc1OC
  .	38%[activator]	?	-29%	.	-1%	.	?
Cc1cc(C(F)(F)F)nn1CC(=O)N(C)c1ccccc1
  1%	2%	-12%[46.1 µM]	1%	.	1%	.	-3%[46.1 µM]
COC(=O)c1cn(C(=O)c2ccc(Br)o2)c2ccccc12
  -8%	0%	-2%	-12%	-8%	-7%	-10%	-24%
Cc1nc(N2CCCC2)c2nnn(Cc3ccccc3Cl)c2n1
  -18%	-12%	1%	-13%	13%	5%	0.2%	28%
CC(C)c1ccc(O)c(NC(=S)NC(=O)CCc2ccccc2)c1
  1%	6%	?	1%	.	-1%	.	?
COc1cccc(C2=NN(S(C)(=O)=O)C(c3cccs3)C2)c1 (stereo not given)
  -2%	29%	9%[46.1 µM]	5%	.	0%	.	?
CCOc1cc(C(=O)NCCOC)cc(OCC)c1OCC
  -10%	-3%	-16%	-1%	4%	-4%	-7.6%	17%
O=C(Oc1ccc(N(Cc2cccs2)C2=NS(=O)(=O)c3ccccc32)cc1)c1ccccc1F
  -1%	10%	-16%	7%[3.69 µM]	?	2%	0.4%	?
